# Source: PubChem BioAssay (several laboratories)
# Rce1 inhib: inhibitors of yeast Ras-converting enzyme; yeast membranes, quenched prenylated peptide cleavage fluorescence; calls only; AID 2563; 290,000 tested, 0.27% active;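 active = fall in fluorescence gain of 50% or more versus controls, with final raw signal at or below 3038400; inconclusive = same 50% fall but final raw signal above 3038400; inactive = fall in fluorescence gain under 50%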;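 note: plate controls were neutral control wells for no effect and wells lacking membranes for full effect; tested at 10 µM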
# Target sequence (Q03530 whole entry, looked up): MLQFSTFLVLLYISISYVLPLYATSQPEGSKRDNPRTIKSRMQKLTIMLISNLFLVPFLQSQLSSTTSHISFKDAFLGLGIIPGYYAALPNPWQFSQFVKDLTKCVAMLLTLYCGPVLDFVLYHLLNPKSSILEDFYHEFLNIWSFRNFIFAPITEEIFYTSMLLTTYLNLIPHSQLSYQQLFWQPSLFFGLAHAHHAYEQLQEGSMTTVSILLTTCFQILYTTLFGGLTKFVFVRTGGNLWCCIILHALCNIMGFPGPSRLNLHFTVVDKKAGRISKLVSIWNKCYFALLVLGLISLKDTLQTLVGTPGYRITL
# Env fusion inh: inhibitors of HIV Env-mediated cell fusion. 360,000 tested, 1.1% active. HeLa-JRFL Env/CEM21 cell fusion, luciferase. AID 651610. inhibition, % at 12.3 µM;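 active = mean replicate inhibition score of at least 50 and every replicate individually at or above 50; inconclusive = only one of the two criteria met; inactive = mean below 50 and not all replicates reaching 50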;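 note: 0% = plate neutral controls and 100% = maraviroc near 300 nM; one replicate is shown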
# PABP polyA inh: blocks human PABP binding to poly(A) RNA; fluorescence polarization; 290,000 tested, 1% active; inhibition, % at 35 µM;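 active = 50% or more with normal probe brightness, or confirmed in later tests; inconclusive = above 50% with abnormal brightness, or retests that disagree; inactive = below 50% or failed in later tests; about a fifth of its hits are not listed in these tables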;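 note: calls also rest on retests at 20 µM and on dose response follow-up; controls were probe without protein and protein plus probe with vehicle; some compounds called inactive have numbers as strong as hits; many hits fall short of the cut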
# MT1-MMP act inh: blocks activation of human MT1-MMP. P50281. HT1080 RFP-PRO-GFP cells, GFP/RFP ratio fluorescence, overnight; percent of plate control window, DMSO zero. GFP/RFP ratio change, % at 20 µM. 360,000 tested, 0.061% active;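 active = GFP/RFP ratio change of at least 30% with cell ATP level not reduced by more than half and red fluorescence within 50% of control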; note: strong numbers were not always called active
#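 Assay system: HT1080 cells carrying an RFP-PRO-GFP reporter | Dosing: Single dose of 20 µM compound, 1% DMSO final | Incubation: Cells overnight before dosing, compound overnight, 37 °C, 5% CO2 | Evaluation: GFP/RFP fluorescence ratio | Control set: DMSO and RFP-L50D-GFP cell wells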
# eIF4H FP inh: inhibitors of RNA binding by human eIF4H; Q15056; eIF4H fluorescence polarization binding assay; inhibition, % at 35 µM; 290,000 tested, 0.94% active;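 active = 50% or more with normal probe brightness, or confirmed in later tests; inconclusive = above 50% with abnormal brightness, or retests that disagree; inactive = below 50% or failed in later tests; about a fifth of its hits are not listed in these tables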;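 note: calls also rest on retests at 20 µM and on dose response follow-up; 0% = protein and probe with vehicle and 100% = probe without protein; strong numbers were not always called active; many hits fall short of the cut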
# CSC inhib: blocks cancer stem cells. cancer stem cell-like cells viability, luminescence. inhibition, % at 7.5 µM. 300,000 tested, 1.1% active;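 active = mean at 75% or more and at least half the replicates too; inconclusive = mean and replicates disagree; tested in HMLE shEcad cells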;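 note: 0% = median of negative and 100% = median of positive control wells; the first replicate is given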
# UUG fidelity: yeast start codon fidelity modulation; S. cerevisiae UUG-firefly luciferase reporter, luminescence/redox ratio; activity score, % at 18.7 µM; 350,000 tested, 0.13% active; AID 602363;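 active = replicate mean at a twofold rise or more, about +100% in these data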;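 note: firefly luciferase made from a UUG start codon reports start codon fidelity; reporter light over untreated wells divided by growth signal over untreated wells; some hits fall short of that in this replicate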
# eIF4H FP inh retest: recorded beside eIF4H FP inh, whose call it bears; inhibition, %; compound at 20 µM; confirmation average;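 mean of two retest wells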
# PABP polyA inh retest: further read-out of PABP polyA inh, marked with its call; inhibition, %; compound at 20 µM; confirmation repeats;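 mean of two retest wells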
# MT1-MMP act inh RFP: also measured in MT1-MMP act inh; calls as there; RFP signal change, %; measured here: RFP expression control read;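 0 = vehicle wells; hits needed this value within 50% of zero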
# * hit, by the source's call; i = inactive; ? = inconclusive; / = not tested or not shown; & = joins results of further samples.
SMILES,Rce1 inhib,Env fusion inh,PABP polyA inh,MT1-MMP act inh,MT1-MMP act inh RFP,eIF4H FP inh,CSC inhib,UUG fidelity,others
CN(C)c1nc(Oc2ccc(=O)[nH]n2)nc(N2CCOCC2)n1,i,/,-1,3,6,-6,-1,/,
CC1(C)C(=O)NCCN1C(=O)CC1C(=O)NCCN1Cc1cccc(C(F)(F)F)c1 (centres undefined),i,7,-2,-1,5,2,/,-7,
S=C1Cc2ccccc2C(c2ccc(Cl)cc2)N1 (centres undefined),i,0,11,-1,-1,-2,10,-18,
COc1cccc(C(=O)N2CCN(S(=O)(=O)Cc3ccccc3)CC2)c1,i,/,2,-1,-3,-3,-10,0,
Cc1c(Cl)ccc2c1NC(=O)[C@]21N[C@@H](Cc2ccccc2)[C@H]2C(=O)N(c3ccc(F)cc3)C(=O)[C@H]21,i,13,0,-17,-12,-2,2,4,
O=C(COC(=O)CCc1c[nH]c2ccccc12)NCc1ccc2c(c1)OCO2,i,-8,-10,-1,1,-1,0,/,
O=C(Cn1cnc2c(cnn2-c2ccccc2)c1=O)NCc1ccccc1,i,-154,-7,3,-3,-2,29,2,
CCOC(=O)c1[nH]c2cc3c(cc2c1NC(=O)CN1CCCC1)OCO3,i,2,40,3,0,60,-9,/,eIF4H FP inh retest=-4;PABP polyA inh retest=-7
CCOC(=O)/C=c1\s/c(=C(\C#N)C(N)=O)n(-c2ccccc2)c1=O,i,12,-8,-1,2,-7,-3,-18,
COc1ccccc1C(CNC(=O)c1cccc(NS(=O)(=O)c2ccc(C)c(F)c2)c1)N(C)C (centres undefined),i,-1,/,0,1,/,6,7,
CCOc1ccc(NC(=O)CCn2c(=S)oc3ccccc32)cc1,i,-28,-7,0,1,-4,-1,-3,
C[C@H](NC(=O)OC(C)(C)C)C(=O)NCC1CCC(C(=O)O)CC1 (some centres undefined),i,19,2,7,6,2,0,-12,
CCCn1nc(C(=O)Nc2ccc(-n3cnnn3)cc2)c2ccccc2c1=O,/,1,/,4,1,/,/,-4,
COc1cc(C=O)ccc1OCCCCOc1ccccc1[N+](=O)[O-],i,11,13,3,1,-6,-16,/,
Cc1ccccc1N(CC(=O)NCc1ccco1)C(=O)CNS(=O)(=O)c1ccc(F)cc1,i,7,3,-5,-5,8,-4,-7,
O=c1[nH]c(N2CCOCC2)nc2ccccc12,i,-2,-4,2,2,-1,-4,-14,
COc1cc(NC(=O)c2ccc([N+](=O)[O-])o2)ccc1NC(=O)c1cccs1,i,-9,9,-5,-14,-17,50,10,
CC(C)CNC(=O)CN(C1CCCCC1)S(C)(=O)=O,i,-22,5,2,4,5,2,-15,
CCOC(=O)c1cc(CC)sc1/N=C/c1c(O)ccc2ccccc12,i,13,-1,5,11,3,-1,-11,
COc1ccccc1NC(=O)CSc1nc2ccccc2nc1N1CC(C)OC(C)C1 (centres undefined),i,/,-2,-5,-7,-14,26,-7,
CC(=O)[C@H]1CC[C@H]2[C@@H]3CCC4=CC(=O)CC[C@]4(C)[C@H]3CC[C@]12C,i,-10&-192,12&8,2&4,-6&-4,-7&-7,-5&10,3&-3,
CC[C@@H](C)CN1C(=O)N[C@@H](c2ccccc2)C(C(C)=O)=C1C,i,?,/,-4,8,/,1,-16,
CC(=O)Nc1ccccc1NC(=O)c1ccc(C)cc1C,i,11,4,0,-2,-2,-8,/,
O=C(Cc1ccc(Cl)c(Cl)c1)Nc1ccccc1N1CCOCC1,i,24,7,-3,-3,12,9,-16,
COC(=O)c1ccc(N2CCN(C(=O)c3ccccc3)CC2)c(NC(C)=O)c1,i,-7,11,0,4,-4,9,/,
CCC(=O)Nc1ccc2nc(C3CC3)n(Cc3ccccc3)c(=O)c2c1,i,/,2,6,-7,1,32,-12,
COC(=O)NNC(=O)COc1cc(C)c(Br)cc1C(C)C,i,10,-7,-15,-2,6,-24,-29,
CN1C2CCC1/C(=C\c1ccc(F)cc1)C(=O)/C2=C/c1ccc(F)cc1,i,0,-19,-17,-15,-2,0,/,
Cc1ccc(Oc2ccc(Cl)cc2N)cc1,/,-3,-7,-8,0,-3,3,/,
O=C(O)c1cccc2c1-c1ccc(Cl)cc1C2,/,-19,/,2,1,/,/,-21,
CCOc1ccc(/C=N/NC(=O)Cn2ccnc2C)cc1,i,-10,0,1,1,3,0,/,
O=C(COC(=O)CSc1ccc([N+](=O)[O-])cc1)NCC1CCCO1 (centres undefined),i,/,-4,-4,-1,-5,16,-11,
O=C(NCc1ccc2c(c1)OCO2)c1ccc(CS(=O)(=O)Cc2cccc(Cl)c2)o1,i,5,-7,2,1,-11,-9,/,
CCOC(=O)c1ccc(NC(=O)c2nc[nH]c2C(=O)NCC(=O)OC(C)(C)C)cc1,i,-24,-2,-3,2,2,25,0,
CC[C@H](C)[C@H]1CNC(=S)N1CC1CCN(CCCCc2ccccc2)CC1,/,-10,/,1,1,/,/,-5,
COC(=O)c1ccc(C2C(Oc3ccc(OC)cc3)C(=O)N2CCc2ccc(F)cc2)cc1 (centres undefined),i,/,-5,4,2,-7,-5,/,
COC(=O)CCC(=O)OC1(C)C(=O)C2=CN(CCc3c[nH]c4ccccc34)C(c3ccc(OC)cc3)=CC2=C(Br)C1=O (centres undefined),i,/,/,-1,8,/,-2,-13,
COc1ccc(CNc2ccccc2)cc1Br,i,/,2,4,7,7,-5,-12,
CCc1cc(C(=O)NNC(=S)Nc2cccc(C)c2)cs1,i,-113,6,5,3,7,-10,-28,
CC(C)(C)c1ccc(C(=O)NNC(=O)CCc2ccccc2)cc1,i,6,/,1,2,/,-2,6,
CCn1c(CCCOc2ccc(Cl)cc2Cl)nnc1SCC(=O)Nc1cccc(F)c1,i,38,5,3,3,13,3,-13,
Cc1ccc(-n2c(=S)[nH]c3sc4c(c3c2=O)CCC4)cc1,i,5,1,5,8,1,-3,/,
Cc1ccc(NC(=O)CCCNC(=O)c2ccc(Cl)cc2)c(O)c1,i,32,-3,5,2,-7,8,-14,
COc1cc2cc(C(C)(C)O)oc(=O)c2cc1OC,/,-16,/,1,3,/,-3,-4,
CCOC(=O)Cc1csc(NC(=O)c2ccc(Br)cc2)n1,i,-4,0,4,-7,-15,-5,-10,
COc1ccc(C(=O)C2CCCN(S(=O)(=O)c3ccc(C(C)=O)cc3)C2)c(C)c1 (centres undefined),i,8,8,-3,-24,-8,-5,3,
COc1ccc(S(=O)(=O)NC(CC(=O)NCc2ccco2)c2ccco2)cc1 (centres undefined),/,/,2,6,2,-5,/,-2,
Cc1[nH]n(-c2ccccc2)c(=O)c1C=Nc1ccc(S(=O)(=O)NC(N)=O)cc1,i,14,13,-8,2,10,3,-14,
Cc1cccc(/C=C/c2onc(C)c2S(=O)(=O)N2CCC(C(=O)NC(C)(C)C)CC2)c1,i,-34,-2,-5,-10,-2,/,-7,
Cc1cc(NC(=O)CSc2ccccn2)no1,i,-8,0,1,1,6,/,/,
CCOC(=O)c1cn[nH]c1NC(=S)Nc1ccccc1,i,-141,-2,2,2,7,-6,-39,
CC(=O)Oc1ccc2ccccc2c1C(NC(=O)Cc1ccccc1)c1ccc(Cl)cc1 (centres undefined),i,-94,-4,-39,-32,12,?,-17,
Cc1cccnc1NC(=O)C1CCN(S(=O)(=O)c2c(C)noc2/C=C/c2ccco2)CC1,i,0,-2,-6,1,62,-15,-10,eIF4H FP inh retest=-1;PABP polyA inh retest=3
Cc1cc(C(=O)Nc2cccc3ncccc23)no1,i,-58,-6,-4,-1,6,2,-11,
Cc1ccc(Sc2ccc(NC(=O)c3ccc(S(C)(=O)=O)cc3Cl)cc2)cc1,i,48,-15,6,-1,-6,-5,-32,
Cc1ccc(NC(=O)CN(C)C(=O)C(c2ccccc2)c2ccccc2)cc1,/,-4,/,4,1,/,/,7,
Cc1ccc([C@H]2C(C(=O)O)=CC[C@@H](c3ccc(C)cc3)N2S(=O)(=O)c2ccc(C)cc2)cc1,/,/,/,-5,1,/,-12,-29,
OCCNc1ncnc2c1nnn2Cc1ccccc1Cl,/,-21,/,9,8,/,/,-19,
Cc1cccc(CNC(=O)C(C)n2nc(C)c3c(C)n(-c4ccccc4)nc3c2=O)c1 (centres undefined),i,14,4,-1,-7,6,-6,-8,
CN1C2C=C(N(CCc3ccccc3)C(=O)c3ccc(Cl)cc3)CC1CC2 (centres undefined),i,26,-2,-6,-5,-15,3,/,

# Already shown: entries from further up.
SMILES,Rce1 inhib,Env fusion inh,PABP polyA inh,MT1-MMP act inh,MT1-MMP act inh RFP,eIF4H FP inh,CSC inhib,UUG fidelity,others
Cc1cccc(CNC(=O)C(C)n2nc(C)c3c(C)n(-c4ccccc4)nc3c2=O)c1 (centres undefined),i,14,4,-1,-7,6,-6,-8,
CN1C2C=C(N(CCc3ccccc3)C(=O)c3ccc(Cl)cc3)CC1CC2 (centres undefined),i,26,-2,-6,-5,-15,3,/,

# Continuation.
SMILES,Rce1 inhib,Env fusion inh,PABP polyA inh,MT1-MMP act inh,MT1-MMP act inh RFP,eIF4H FP inh,CSC inhib,UUG fidelity,others
COc1ccc(NC(=O)CCC(=O)Nc2cc(OC)c(NC(=O)c3ccco3)cc2OC)c(OC)c1,i,8,12,2,1,76,-6,-21,eIF4H FP inh retest=-4;PABP polyA inh retest=16
CCN(CC)c1ncnc2c1ncn2[C@H]1CN(Cc2ccc(OC)cc2)C[C@@H](CO)O1,/,10,/,-1,0,/,/,-9,
CC1C(=O)CCN(C(C)C)C1C (centres undefined),i,/,7,-3,1,-6,-10,/,
COc1cccc(-n2cc3c(=O)n(C)c(=O)n(C)c3c2)c1,i,/,28,-4,-2,6,21,-10,

# Among those listed so far, these have an NH in an aromatic ring.
SMILES,Rce1 inhib,Env fusion inh,PABP polyA inh,MT1-MMP act inh,MT1-MMP act inh RFP,eIF4H FP inh,CSC inhib,UUG fidelity,others
CN(C)c1nc(Oc2ccc(=O)[nH]n2)nc(N2CCOCC2)n1,i,/,-1,3,6,-6,-1,/,
O=C(COC(=O)CCc1c[nH]c2ccccc12)NCc1ccc2c(c1)OCO2,i,-8,-10,-1,1,-1,0,/,
CCOC(=O)c1[nH]c2cc3c(cc2c1NC(=O)CN1CCCC1)OCO3,i,2,40,3,0,60,-9,/,eIF4H FP inh retest=-4;PABP polyA inh retest=-7
O=c1[nH]c(N2CCOCC2)nc2ccccc12,i,-2,-4,2,2,-1,-4,-14,
CCOC(=O)c1ccc(NC(=O)c2nc[nH]c2C(=O)NCC(=O)OC(C)(C)C)cc1,i,-24,-2,-3,2,2,25,0,
COC(=O)CCC(=O)OC1(C)C(=O)C2=CN(CCc3c[nH]c4ccccc34)C(c3ccc(OC)cc3)=CC2=C(Br)C1=O (centres undefined),i,/,/,-1,8,/,-2,-13,
Cc1ccc(-n2c(=S)[nH]c3sc4c(c3c2=O)CCC4)cc1,i,5,1,5,8,1,-3,/,
Cc1[nH]n(-c2ccccc2)c(=O)c1C=Nc1ccc(S(=O)(=O)NC(N)=O)cc1,i,14,13,-8,2,10,3,-14,
CCOC(=O)c1cn[nH]c1NC(=S)Nc1ccccc1,i,-141,-2,2,2,7,-6,-39,
